Screening data from PubChem.
LANA-H2A inh: blockers of LANA interaction with H2A/H2B – biochemical, FP readout, HTS, primary screen | Protein LANA1 (Human herpesvirus 8 type P (isolate GK18)), Q9QR71 | cell-free LANA-H2A/H2B peptide, fluorescence polarization | inhibition, % (no concentration beside the values) | 320,000 compounds, 0.6% hits; in the data active = inhibition mostly above about 10%, no sharp cut-off; inactive = mostly below about 6.7%;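 note: stock transfer was 7.5 nL into about 10 µL; 0% = median of vehicle wells and 100% = median of positive control wells; one replicate is shown; the record names a cut of 25% in any replicate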
Vif A3G: inhibitors of Vif binding to APOBEC3G peptide, primary screen, biochemical, TR-FRET, GST-Vif 1-94, biotin-A3G peptide, dose response retest (AID 1117319); inhibition, %, or IC50 in µM where a hit was titrated; 260,000 compounds, 0.57% hits; TR-FRET GST-Vif / biotin-A3G peptide binding; higher % means a stronger effect; test concentration not given here; strong numbers were not always called active;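 active = above the screen mean plus three standard deviations and confirmed in dose response; inconclusive = results disagree or hit not tested in dose response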;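 note: Vif residues 1-94 fused to GST binding biotinylated APOBEC3G peptide 110-148; 0% = full assay without inhibitor and 100% = GST in place of GST-Vif; retest series ran down from 100 µM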
HNF4A DNA FP: change in binding of human HNF4A to DNA, primary screen, biochemical, fluorescence polarization, FITC-DNA; activity change, % at 10 µM; Hepatocyte nuclear factor 4-alpha (Homo sapiens), P41235; 360,000 compounds, 0.3% hits; 1 h; in the data active = activity change above about 30%, passing the limit was not always enough;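 note: controls were the assay level and a saturating level of protein; the project sought stronger binding though the title names inhibitors; some compounds called inactive have numbers as strong as hits; positive values seem to mean higher polarization but the record does not say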
Target sequence (P41235 whole entry, looked up): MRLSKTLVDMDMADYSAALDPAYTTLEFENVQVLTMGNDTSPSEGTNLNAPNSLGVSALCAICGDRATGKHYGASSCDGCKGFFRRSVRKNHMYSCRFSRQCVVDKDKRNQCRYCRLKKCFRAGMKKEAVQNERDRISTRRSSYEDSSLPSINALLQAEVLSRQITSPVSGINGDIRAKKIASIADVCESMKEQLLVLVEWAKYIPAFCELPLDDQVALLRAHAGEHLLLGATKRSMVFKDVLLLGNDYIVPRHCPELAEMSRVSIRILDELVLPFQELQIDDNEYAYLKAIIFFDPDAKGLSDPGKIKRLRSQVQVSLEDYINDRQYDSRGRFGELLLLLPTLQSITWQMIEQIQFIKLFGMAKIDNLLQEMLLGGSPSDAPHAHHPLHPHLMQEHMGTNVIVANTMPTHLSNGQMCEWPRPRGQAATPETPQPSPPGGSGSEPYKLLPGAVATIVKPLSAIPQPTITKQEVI
B2AR ag: beta2AR agonists driving receptor internalization, primary screen, cell-based, FAP fluorogen, flow cytometry; Beta-2 adrenergic receptor (Homo sapiens), P07550; Am2.2-beta2AR cells; reference of the scale not given here; response, % (no concentration beside the values); 340,000 compounds, 0.43% hits; AID 504454, 2011;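 active = response above a set limit, near 3 SD of response in nonfluorescent compounds, cut at about 42% in these data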;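 note: stock transfer was 100 nL into about 11 µL; a reference agonist was the positive control; negative values mostly stem from fluorescent compounds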
Target sequence (P07550 whole entry, looked up): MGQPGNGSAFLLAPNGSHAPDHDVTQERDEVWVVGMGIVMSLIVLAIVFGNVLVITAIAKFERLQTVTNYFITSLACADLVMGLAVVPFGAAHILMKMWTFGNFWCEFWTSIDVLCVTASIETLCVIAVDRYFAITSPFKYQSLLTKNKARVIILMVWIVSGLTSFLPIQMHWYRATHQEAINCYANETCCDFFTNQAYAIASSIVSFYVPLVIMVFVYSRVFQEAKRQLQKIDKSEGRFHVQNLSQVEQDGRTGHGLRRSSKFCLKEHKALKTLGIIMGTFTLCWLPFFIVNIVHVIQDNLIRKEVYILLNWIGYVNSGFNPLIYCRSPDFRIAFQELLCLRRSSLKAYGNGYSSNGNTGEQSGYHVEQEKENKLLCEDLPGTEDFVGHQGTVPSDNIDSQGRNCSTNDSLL
UCH37 DUB inh: inhibitors of human UCH37 deubiquitinase, primary screen, biochemical, Ub-AMC cleavage, fluorescence | Ubiquitin carboxyl-terminal hydrolase isozyme L5 (Homo sapiens), Q9Y5K5 | purified proteasome/UCH37 | inhibition, % (test concentration not listed) | 330,000 compounds, 0.33% hits | AID 588478, 2011;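 active = mean of two replicates above 20%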;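 note: 0% = compound-free wells with enzyme and 100% = wells lacking proteasome; stock transfer was 100 nL into about 20 µL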
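Material: Human UCH37 enzyme supplied as purified proteasome complex | Schedule: 30 min preincubation with enzyme, 25 min cleavage at room temperature | Detection: AMC fluorescence 355/460 nm | Measure: % inhibition of Ub-AMC cleavage fluorescence | Controls: Wells without proteasome as full block, compound-free enzyme plus substrate as uninhibited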
E coli growth: E. coli growth inhibition, primary screen, OD600; 330,000 compounds, 0.21% hits; OD600 absorbance (test concentration not listed); Escherichia coli growth, 23 h; stronger effect = lower value; AID 1053175, 2014;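 active = OD600 absorbance below the run mean of sample wells minus 3.6 SD, in any replicate, cut at about 0.56 in these data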;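 note: stock transfer was 300 nL into about 60 µL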
Bfl-1 A1 inh: caspase 3/7 activation in MEF A1-2A-BIM cells, primary screen, A1 inhibitor project, cell-based, luminescence, HTS; Caspase-Glo 3/7 luminescence, 3 h; percent of clofoctol response, vehicle zero; caspase activation, % (concentration not given with the values); 330,000 compounds, 0.066% hits; AID 2462, 2010;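 active = over half of replicate activation scores above 10%, or exactly half above 10 with the replicate mean above 10; inconclusive = replicate mean below 10 yet half the replicates above 10; inactive = over half of replicates below 10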;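 note: wells of about 30 µL received 50 nL stock; many hits fall short of the cut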
* hit, by the source's call; ? = inconclusive; . = no result given; & = joins results of further samples.

mol	LANA-H2A inh	Vif A3G	HNF4A DNA FP	B2AR ag	UCH37 DUB inh	E coli growth	Bfl-1 A1 inh
Cc1cc(C)n(C(=O)c2ccc(C)c(S(=O)(=O)N3CCOCC3)c2)n1	1.9	14%	1.3	6	7.0	0.74	?
Cc1cnc(C(=O)OC(C(=O)Nc2cc(C(F)(F)F)ccc2Cl)c2ccccc2)cn1 (stereo unspecified)	-5.7	0%	1.3	-7	-0.5	0.69	1.4
O=C1CCC(c2ccccc2)c2ccccc21 (stereo unspecified)	-0.1	.	-4.6	3	4.1	0.64	0.2
NC(=O)C1CCN(C(=O)c2cc(-c3ccccc3Cl)nc3ccccc23)CC1	-2.3	-20%	-1.3	-6	0.6	0.66	-0.3
Cc1cccc(OCC(=O)Nc2ccc(N3CCN(S(C)(=O)=O)CC3)cc2)c1C	2.0	3%	-2.7	0	3.0	0.73	-0.4
COc1ccccc1CNC(=O)CCn1c(=O)[nH]c2ccsc2c1=O	-2.3	5%	1.9	2	-0.9	0.69	-0.1
NC(=O)COC(=O)c1cc(=O)[nH]c2ccccc12	-1.6	.	0.1	4	-34	0.69	-0.1
O=C(CCCCC(=O)OCC1COCO1)OCC1COCO1 (stereo unspecified)	.	5%	2.8	0	-1.0	0.69	.
CCN1C(=O)c2cccc3c(S(=O)(=O)NCC4CCCO4)ccc1c23 (stereo unspecified)	1.2	?	-0.1	-20	-252	0.69	1.1
O=C(COC(=O)c1ccc2c(c1)OCCO2)NCCc1ccc(F)cc1	0.9	.	6.1	-4	0.4	0.69	0.2
COC(=O)c1ccccc1NC(=O)c1nc(S(=O)(=O)Cc2ccccc2)ncc1Cl	1.0	.	-0.8	52*	1.0	0.69	0.5
CN(C)C(=O)N1CCC(C(=O)NCc2ccccc2)CC1	-0.9	11%	3.0	-4	0.0	0.69	-0.2
CC(C(=O)NCCCN1CCOCC1)n1cccc1C(=O)c1ccccc1 (stereo unspecified)	2.4	21%	-1.2	1	-1.3	0.75	0.4
COc1ccc(S(=O)(=O)N2CCC(C(=O)NCc3ccccn3)CC2)cc1Cl	-2.8	-1%	-1.4	-1	0.7	0.71	0.6
CN1CCN(c2oc(-c3ccccc3)nc2S(=O)(=O)c2ccc(Br)cc2)CC1	0.6	-4%	-0.6	-12	2.3	0.67	0.1
O=C(O)CSc1nc2ccccc2n1Cc1ccccc1	-7.3	.	2.8	3	-2.0	0.64	0.5
Clc1ccc(Cc2nnc(-c3ccccc3Br)o2)cc1	1.8	-8%	-3.1	9	1.0	0.7	-0.4
N/C(=N\OC(=O)CCCc1ccccc1)c1ccc(Br)cc1	1.4	.	7.8	-1	3.8	0.74	-1.4
O=C(COc1ccc(Br)cc1)OCCN1CCCCC1	-4.9	-9%	-1.4	-1	6.8	0.59	-0.7
CC1CN(c2cc(=O)n(-c3ccccc3)c(=O)[nH]2)CC(C)O1 (stereo unspecified)	-3.4	3%	-0.7	0	6.8	0.77	1.1
O=C(Nc1nnc(C2=COCCO2)o1)c1ccc(S(=O)(=O)N2CCOCC2)cc1	-5.4	-20%	-1.1	4	4.8	0.71	-0.9
CCC1(c2ccccc2)NC(=O)N(CC(=O)Nc2ccccc2N2CCCC2)C1=O (stereo unspecified)	-0.2	26%	-2.6	2	3.6	0.6	-0.6
O=C(/C=C/c1c(F)cccc1Cl)Nc1nn[nH]n1	-11	-7%	-1.0	-1	2.1	0.67	0.0
Cc1ccc(-n2c(COc3cccc(C)c3)n[nH]c2=S)cc1	-1.3	1%	1.2	4	-0.3	0.68	-0.1
Cc1ccc(Cn2cc(SCC(N)=O)c3ccccc32)cc1	0.3	8%	1.2	12	7.3	0.8	0.1
Cc1ccc(N2CC(C(=O)Nc3ccc(S(=O)(=O)Nc4nccc(C)n4)cc3)CC2=O)cc1 (stereo unspecified)	-1.0	8%	3.5	-3	5.1	0.69	-0.3
COc1ccc(C)cc1NS(=O)(=O)c1cc(C)ccc1C	-2.9	5%	1.2	15	0.4	0.71	0.8
CCCCNCc1ccc(OCc2ccc(Cl)nc2)c(OC)c1	-6.8	25%	-0.4	-7	2.8	0.62	0.1
O=C(CSc1nnc(Nc2ccccc2)s1)Nc1cccnc1Cl	-5.4	.	2.7	4	-4.4	0.67	-1.4
S=C(NCc1ccco1)Nc1ccc(Cl)cc1Cl	0.7	23%	-0.2	3	1.1	0.65	0.1
CCOC(=O)N1CCc2c(sc(NC(=O)C3=COCCO3)c2C(N)=O)C1	-2.3	.	-2.2	-6	-16	0.65	-0.4
COC(=O)c1sccc1NC(=O)c1cc(-c2ccc(C)cc2)nc2ccccc12	2.6	?	-1.0	-4	-16	0.71	0.0
COc1cc(C2=NOC(C(=O)NCc3ccc(F)cc3)C2)cc(OC)c1OC (stereo unspecified)	1.2	-10%&-4%	2.6	30	1.1	0.74	-0.6
COCCNC(=S)N(CCc1c(C)[nH]c2ccc(C)cc12)Cc1ccco1	-3.5	-5%	1.1	1	3.3	0.7	-0.2
O=c1cc(-c2ccccc2)nc2nc(-c3ccccc3)[nH]n12	2.0	6%	0.4	1	3.5	0.71	-0.4
O=C(COc1coc(CN2CCN(c3ccccc3F)CC2)cc1=O)NCC1CCCO1 (stereo unspecified)	1.1	1%	1.8	12	1.8	0.69	-0.3
Cc1nc2ccc(NC(=O)c3sccc3C)cc2s1	3.0	-4%	3.1	-11	-1.6	0.68	-0.2
CCOC(=O)CN1C(=O)NC(C)(c2ccc(OC(F)F)cc2)C1=O (stereo unspecified)	1.5	32%	1.6	3	5.0	0.69	0.3
O=[N+]([O-])c1ccc(Cl)c(/C=N/NC(=S)Nc2ccccc2)c1	-0.1	-2%	-2.7	-3	.	.	0.4
Cc1cccc(OCCCC(=O)Nc2ccc(Br)cc2)c1	-0.7	-11%	0.3	1	-1.0	0.72	1.3
CCC1(CC)Cc2ccccc2C(CC(=O)N2CCOCC2)=N1	3.6	10%	1.7	8	9.9	0.65	0.1
CC(=O)c1ccc(NC(=O)c2cc(C)no2)cc1	-1.4	.	3.0	-5	2.9	0.63	0.2
CN(CC1COc2ccccc2O1)C(=O)c1ccc(Cl)c(S(=O)(=O)N2CCCCCC2)c1 (stereo unspecified)	-0.7	.	1.4	3	-2.6	0.72	-0.2
N#Cc1cccc(Cn2nnc(-c3ccccc3)n2)c1	-2.7	0%	-2.0	-15	1.2	0.71	1.7
COc1cccc(NC(=O)C2CCCN(S(=O)(=O)c3ccc(-n4cnnn4)cc3)C2)c1 (stereo unspecified)	-3.6	20%	0.3	-23	-0.8	0.74	0.4
CCCCn1c(=O)cc(N2CCOCC2)[nH]c1=O	-8.9	2%	-3.4	12	2.5	0.73	1.7
Cc1cc(NS(=O)(=O)c2ccc(N3C(=O)C4C5C=CC(C5)C4C3=O)cc2)nc(C)n1 (stereo unspecified)	-1.2	19%	-1.3	1	4.2	0.68	0.4
CCOC(=O)Cc1csc(NC(=O)CN2CCN(CC)CC2)n1	-2.4	.	-3.9	3	2.3	0.66	-0.1
CC(=O)Nc1ccc(NC(=O)C(C)OC(=O)c2ccc(S(=O)(=O)N3CCCCCC3)cc2)cc1 (stereo unspecified)	4.5	0%	0.3	5	2.0	0.72	-1.0
O=C(CNC(=O)c1ccccc1)NCc1nc2ccccc2[nH]1	.	-5%	2.5	6	3.4	0.7	-0.6
CC1(C)Cc2ccccc2C(N/N=C/c2cccc(F)c2)=N1	-3.2	5%	0.0	2	.	.	0.3
CCOc1cc(Cl)c(S(=O)(=O)NCc2ccccn2)cc1Cl	-1.2	69%	8.2	-10	-1.3	0.64	0.7
O=C(COC(=O)CNC(=O)c1ccccc1F)Nc1ccc2[nH]c(=O)[nH]c2c1	-0.3	5%	4.0	0	2.1	0.66	-0.2
Clc1ccc(CSc2nnc(/C=C/c3ccccc3)o2)c(Cl)c1	4.2	0%	2.2	13	1.4	0.78	0.2
CCC(CO)n1c(SCc2cc(=O)oc3cc(C)ccc23)nc2ccccc2c1=O (stereo unspecified)	2.2	3%	0.8	-8	4.0	0.65	-0.2
COc1cccc(-c2nn(C)c3sc(C(=O)NCc4ccc5c(c4)OCO5)cc23)c1	-2.0	-2%	2.9	2	-0.8	0.76	0.3
Cc1occc1-c1nnc(SCC(=O)NCc2ccc3c(c2)OCO3)n1CC(C)C	-7.6	4%	3.1	-7	5.2	0.73	0.3
COc1ccc(OC)c(NC(=O)COC(=O)Cc2ccsc2)c1	-2.5	2%	1.3	0	1.6	0.69	-0.3
O=C(COC(=O)c1c2c(nc3ccccc13)/C(=C/c1ccco1)CC2)NC1CCCC1	.	.	-26	6	-74	0.71	.
COc1cc(-c2nc(-c3ccccc3)c(-c3ccc(F)cc3)[nH]2)cc2c1OCO2	0.1	.	-1.3	10	-102	0.71	0.0

Some values from above.
Reading of CCC(CO)n1c(SCc2cc(=O)oc3cc(C)ccc23)nc2ccccc2c1=O (stereo unspecified) under HNF4A DNA FP: 0.8
Reading of N#Cc1cccc(Cn2nnc(-c3ccccc3)n2)c1 under E coli growth: 0.71

Next part.
mol	LANA-H2A inh	Vif A3G	HNF4A DNA FP	B2AR ag	UCH37 DUB inh	E coli growth	Bfl-1 A1 inh
O=C(/C=C/c1ccco1)N(Cc1ccccc1F)C1CCS(=O)(=O)C1 (stereo unspecified)	.	7%	3.7	-2	2.8	0.7	.
Cn1c(SCC(=O)N2CCCCC2)nc2c(c1=O)SCC2	2.9	-7%	0.5	-13	6.4	0.64	0.0
Clc1ccccc1Nc1nnc(-c2ccncc2)s1	-2.5	0%	-1.6	1	-15	0.66	-8.9
CCCCCCC1/C(=N/O)CCC1C(=O)OC (stereo unspecified)	0.8	7%	0.5	0	.	.	1.4
Cc1ccc(C)c(NC(=S)N2CCCCCC2)c1	1.5	8%	-4.6	2	-0.7	0.73	-0.3
COc1cccc(NC(=O)CN2CCN(CC(=O)Nc3ccc(F)cc3)CC2)c1	3.2	-7%	4.2	8	0.3	0.69	1.9
O=C(Nc1ccccc1)Nc1nnc(CSCc2ccccc2Cl)s1	-21	.	4.0	0	.	.	-0.3
COC(=O)CCC(=O)N1CCCC(CO)(Cc2ccccc2C)C1 (stereo unspecified)	2.0	-1%	-4.3	-2	-3.3	0.69	1.0
CN(CC1COc2ccccc2O1)C(=O)CSc1ncccn1 (stereo unspecified)	-2.6	1%	1.0	-9	1.3	0.67	-0.6
COc1ccccc1CC(=O)O/N=C(\N)c1ccccn1	-2.4	-7%	5.4	10	2.1	0.66	0.0
COc1ccc(-c2cc(C(F)(F)F)nc(N3CCOCC3)n2)cc1	-2.7	3%	-1.5	2	-20	0.7	0.3
CCc1ccc(Nc2ccc(C(=O)O)cc2[N+](=O)[O-])cc1	4.6	.	0.9	9	9.3	0.67	-1.2
